2A firefly = FMDV 2A StopGo reporter, firefly signal. HEK cells with a luciferase reporter of 2A StopGo recoding. Potency, µM (top dose mostly 57.5 µM), inactives show at the top dose signal change, negative = less light. 120,000 compounds, 0.23% hits. AID 1745856; active = well fitted falling curve with a large enough effect; inconclusive = small, poorly fitted or top-dose-only effect; inactive = no such curve, though single readings can be large or run the other way; also: nearly all actives have a fitted effect of over 60% in size; overnight with compound
StopGo RLuc = FMDV 2A StopGo reporter, Renilla signal. HEK cells with a luciferase reporter of 2A StopGo recoding. Potency, µM (series often up to 57.5 µM), for the others: at the top dose signal change, negative = less light. 120,000 compounds, 0.32% hits. AID 1745857; active means well fitted falling curve with a large enough effect; inconclusive means small, poorly fitted or top-dose-only effect; inactive means no such curve, though single readings can be large or run the other way; also: nearly all actives have a fitted effect of over 55% in size; overnight with compound
An asterisk follows results filed as active; ? = inconclusive; & = joins results of further samples; [ ] = another dose, or the depositor's remark. % is scaled to controls: 0 for no effect and ±100 for the full control effect; potency is read from the fitted curve at half-maximal effect.

Under each structure – 2A firefly	StopGo RLuc
1: CCN(C1CC1)S(=O)(=O)c1cccc2cc(C)cnc12
 : -7%	19%
2: CC(CC(=O)NNC(=O)CC1CCCCC1)CC(=O)Nc1cccc(Br)c1 (stereo not given)
 : 1%	14%
3: COc1ccc(C)cc1C(=O)NCCc1c[nH]c2ccccc12
 : ?	0%
4: CC(C)c1ccccc1NC(=O)COC(=O)c1cc(=O)c2ccccc2o1
 : -4%	5%
5: COc1cccc(OC)c1C(=O)OCc1ccccc1C#N
 : 73%[activator]	60%[activator]
6: Cc1cccc(-c2noc(-c3cccnc3NCc3ccccc3Cl)n2)c1
 : 14%	-8%
7: COc1cccc(CNC(=O)CSc2c3c(nc4cc(Cl)ccc24)CCCC3)c1
 : 0%	4%
8: CC(C)c1ccc(OCC(=O)Nc2cc(-c3ccccc3)no2)cc1
 : 35%[activator]	-2%
9: CCn1c(CN2CCOCC2)nc2cc(NC(=O)c3cccc([N+](=O)[O-])c3)ccc21
 : -10%	-10%
10: COc1ccc(NC(=O)CCSc2nc(-c3ccco3)cc(C(F)(F)F)n2)c(OC)c1
 : 0%	17%
11: Cc1cc(Nc2ccccc2)c2c([N+](=O)[O-])cc(C)c(C)c2n1
 : 3%	25%
12: Cc1c(Cc2ccccc2)c(=O)oc2cc(OCC(=O)O)ccc12
 : -4%	-7%
13: CCCCc1ccc(N/C(N)=N/c2nc(C)cc(C)n2)cc1
 : ?	?
14: Cc1ccc(S(=O)(=O)Nc2cccc(NC(N)=O)c2)cc1Cl
 : 4%	158%[activator]
15: CSc1ccc(CNC(=O)c2cc3cc(S(=O)(=O)N4CCCCC4)ccc3n2C)cc1
 : ?	?
16: O=S(=O)(Nc1nc2ccccc2nc1NCc1ccccc1Cl)c1cccs1
 : 26%	34%[activator]
17: COc1ccccc1NC(=O)c1nn(-c2ccc(Cl)cc2)ccc1=O
 : 27%	17%
18: CCOc1ccc(NC(=O)CN(C)S(=O)(=O)c2ccc3[nH]c4c(c3c2)CCCC4)cc1
 : -21%	-14%
19: CCOC(=O)c1ccccc1NC(=O)NC(C)c1c(-n2cccc2)sc(C)c1C (stereo not given)
 : 22%	-13%
20: CC(C)NC(=O)c1ccc(-n2c(-c3ccccc3)cc3c2CCCCC3)cc1
 : 75%[activator]	39%[activator]
21: Cc1nc(N2C(=O)c3oc4ccccc4c(=O)c3C2c2cccc(OCCC(C)C)c2)sc1C (stereo not given)
 : -8%	-5%
22: O=C(O)c1cc(-c2ccco2)nc2ccc(Br)cc12
 : 21%&2%	-12%&-5%
23: CC(=O)c1cccc(NC(=O)c2ccc(C#N)cc2F)c1
 : 72%[activator]	-2%
24: O=C(Nc1ccccc1)c1nnc(CSCC(=O)N2CCN(c3ccccc3)CC2)s1
 : 25%	-21%
25: CC(C)C(=O)N1c2ccccc2NC2=C(C(=O)CC(C)(C)C2)C1c1cccnc1 (stereo not given)
 : 3%	1%
26: Clc1ccc(-n2nnnc2-c2ccccc2)cc1
 : 7%	5%
27: CCn1cc(C(=O)O)c(=O)c2cc(F)c(N3CCNCC3)cc21
 : -5%	-9%
28: Cc1ccc(C)c(N2CCN(C(=O)c3ccc4c(c3)c(C)c(C)n4C)CC2)c1
 : 25%	12%
29: CC(C)Oc1ccc(-c2cc(C(=O)O)c3ccccc3n2)cc1
 : -10%	?
30: O=C(COc1ncnc2ccc(Br)cc12)Nc1ccccc1F
 : 5%	4%
31: CCCNC(=O)NC(=O)CSc1nc2ccccc2c(=O)n1CC
 : 65%	38%[activator]
32: COc1ccc(C(=O)Nc2cc(C(F)(F)F)ccc2N2CCN(c3ccccc3)CC2)cc1OC
 : 3%	-6%
33: COc1cc2cc(C(=O)NCC(=O)Nc3ncc(C)s3)n(C)c2c(OC)c1OC
 : 46%[activator]	32%[activator]
34: Cc1cc(C)c2oc(-c3cccc(NC(=O)COc4ccccc4Cl)c3C)nc2c1
 : -14%	3%
35: CCS(=O)(=O)N1CCc2ccc(NC(=O)NCCC(C)C)cc21
 : -17%	23%
36: CC(C)c1ccccc1NC(=O)CN1C(=O)c2cccc3cccc1c23
 : -3%	4%
37: CC(C)(Oc1ccc(Cl)cc1)C(=O)N1CCN(c2ncccn2)CC1
 : -4%	-9%
38: CCc1ccc(CN2CCc3nc(Nc4ccccc4)ncc3C2)cc1
 : 16%	-3%
39: COc1ccc(-c2noc(CSc3nnc(C)n3-c3cccc(C)c3)n2)cc1
 : ?	?
40: Cc1ccc2nc(-c3ccncc3)c(Nc3ccc(C(C)C)cc3)n2c1
 : -10%	-2%
41: Cc1ccccc1OCC(=O)Nc1ccc(S(=O)(=O)Nc2ncccn2)cc1
 : -17%	-7%
42: CCOC(=O)c1c(C)c(C(=O)NCCc2ccc(OC)cc2)c(C)n1C
 : 1%	-2%
43: COc1cccc(-c2nc(CSc3ccc4c(c3)OCCCO4)cs2)c1OC
 : 31%[activator]	4%
44: COc1ccc(-n2c(=O)c3c4c(sc3n(Cc3ccc(C(C)(C)C)cc3)c2=O)CCC4)c(OC)c1
 : -12%	-5%
45: COc1ccc(Cl)cc1NC(=O)C(C)Sc1nc2c(c(=O)[nH]1)CCCC2 (stereo not given)
 : 19%	4%

2 entries from above in a different format:
#35 CCS(=O)(=O)N1CCc2ccc(NC(=O)NCCC(C)C)cc21
- 2A firefly: -17%
- StopGo RLuc: 23%
#38 CCc1ccc(CN2CCc3nc(Nc4ccccc4)ncc3C2)cc1
- 2A firefly: 16%
- StopGo RLuc: -3%

Later entries
Under each structure – 2A firefly	StopGo RLuc
46: N#Cc1nc(/C=C/c2ccc(F)cc2)oc1N1CCCC1
 : 68%[activator]	3%
47: CCc1nc2nc(C)c(Cc3ccc(Cl)cc3)c(=O)n2[nH]1
 : 7%	-5%
48: Cc1noc(N)c1C(=O)OC(C)C(=O)NC1CC1 (stereo not given)
 : 9%	16%
49: CCc1ccc(NC(=O)C2CCN(c3nn4c(=O)cc(C)nc4s3)CC2)cc1
 : -8%	-16%
50: Cc1cn([C@H]2C[C@H](N=[N+]=[N-])[C@@H](CO)O2)c(=O)[nH]c1=O
 : -8%	-11%
51: CC(C(=O)N1CCc2ccccc21)n1c(=O)c2c(ncn2C2CCCC2)n(Cc2ccccc2)c1=O (stereo not given)
 : -1%	-8%
52: O=C(NCC(c1cccs1)S(=O)(=O)c1cccs1)c1c(F)cccc1F (stereo not given)
 : -11%	72%[activator]
53: Cc1ccc(CNc2nc(N)c([N+](=O)[O-])c(Nc3ccc(Cl)cc3)n2)cc1
 : 12%	-7%
54: C#CCN1CCC(C(=O)NCCN2CCC(C)CC2)CC1
 : 1%	7%
55: Cc1cccc(Nc2nc3c(c(=O)[nH]c(=O)n3C)n2CC(=O)O)c1C
 : -10%	-14%
56: COc1ccc(CCNc2oc(-c3ccc(OC)c(OC)c3)nc2C#N)cc1OC
 : -7%	-7%
57: CCCNC(=O)C1CCCN1S(=O)(=O)c1cccc2cc(C)cnc12 (stereo not given)
 : 0%	17%
58: Cc1cc(C)cc(-n2nnnc2SCC(=O)N2CCN(CC(=O)N3CCCC3)CC2)c1
 : -10%	-13%
59: COc1cc2ccccc2cc1C(=O)Nc1nnc(C2CCCCC2)s1
 : 51%[activator]	-5%
60: COC1=CC(=O)C[C@@H](C)[C@]12Oc1c(Cl)c(OC)cc(OC)c1C2=O
 : 24%	50%[activator]
61: CC(/C=C/c1ccccc1)=N\NC(=O)c1ccc(C(C)(C)C)cc1
 : 0%	?
62: C#CCNC(=O)c1cc(-c2ccccc2)nc2ccccc12
 : 6%	0%
63: Cc1ccc(CCNS(=O)(=O)c2c(C)nc3sc(C)c(C)n3c2=O)cc1
 : 0%	-11%
64: O=C1CSc2ccc(C(=O)Nc3cccc(COC(=O)c4ccc5c(c4)NC(=O)CS5)c3)cc2N1
 : 24%	8%
65: Cc1ccc(C2CC(=O)N(Cc3ccccc3)c3c2c(C)nn3-c2nc(C)cc(C)n2)cc1 (stereo not given)
 : -17%	-4%
66: CN(c1ccc(-c2csc(NC3CCCC3)n2)cc1)S(C)(=O)=O
 : ?	?
67: O=C(/C=C/C=C/c1cccs1)c1ccc(-c2ccccc2)cc1
 : 34%[activator]	12%
68: CCOc1cccc2cc(-c3cc(=O)oc4cc(O)ccc34)c(=O)oc12
 : -10%	8%
69: COc1cc(/C=C/c2nc(C#N)c(N(C)C)o2)cc(OC)c1OC
 : 4%	-12%
70: CCOC(=O)c1ccc(-n2c(C)nc3c(cnn3-c3ccc(Cl)cc3)c2=O)cc1
 : -9%	-10%
71: CCCCn1c(=O)[nH]c(=O)c2c1nc(COc1cc(Cl)ccc1Cl)n2CCC
 : -9%	-3%
72: CCOc1ccccc1-n1ccnc(NCc2ccc(F)cc2)c1=O
 : -4%	19%
73: CC(=O)Oc1cccc(C)c1
 : -12%[11.5 µM]	-4%
74: CC(C)(C)CC(=O)NCCCNC(=O)c1cccc(O)c1
 : -4%	6%
75: Cc1c(C)n(Cc2cccnc2)c2ncnc(NCc3cccnc3)c12
 : 11%	-3%
76: COc1cccc(-c2cc(C(=O)Nc3ccc(C)cc3)[nH]n2)c1
 : 4%	9%
77: CC(NC(=O)c1ccc(-c2ccc(F)cc2)o1)c1ccccc1 (stereo not given)
 : 50%[activator]	1%
78: CN1C(=O)c2ccccc2Sc2ccc(NC(=O)Cc3c(F)cccc3Cl)cc21
 : 7%	52%[activator]
79: Cc1ccc(-c2nn(CC(C#N)CCC#N)c(=O)c3ccccc23)cc1 (stereo not given)
 : -3%	-3%
80: O=C(CCCc1nc2ccccc2o1)NCc1ccc(F)cc1
 : 4%	-4%
81: CC(=O)c1ccc(NC(=O)[C@@]2(CC(=O)O)CC(c3ccc(C)cc3)=NO2)cc1
 : 6%	-8%
82: Fc1ccc(CN2CCCN(Cc3nnsc3Cl)CC2)cc1
 : -13%	-10%
83: Cc1ccc(N2CCN(C(=O)c3cn(C)c4ccc(S(=O)(=O)N(C)C5CCCCC5)cc4c3=O)CC2C)cc1 (stereo not given)
 : -21%	-18%
84: CCN1CCN(C(c2cccc(OC)c2)c2c(O)cc(C)n(Cc3ccco3)c2=O)CC1 (stereo not given)
 : -10%	40%[activator]
85: Cn1c(-c2ccccc2)c(C(=O)C(=O)NCc2ccccc2)c2ccccc21
 : -11%	122%[activator]
86: O=c1[nH]c2ccccc2c(=O)n1-c1ccc(Cl)c(Cl)c1
 : 58%[activator]	-6%
87: COc1ccc(-c2cc(C(=O)NCC3CCCO3)c3cc(C)ccc3n2)cc1 (stereo not given)
 : 143%[activator]	58%[activator]
88: CCOc1ccc(NC(=O)c2cc(S(=O)(=O)NC3CCCCCC3)ccc2F)cc1
 : ?	0%
89: Cc1cc(C2=NNC(=NC3CC3)SC2)c(C)n1C1CC1
 : -38%	-13%
90: CN(CC(=O)NC(=O)NC1CC1)CC(=O)N(C)C
 : -19%	-9%
91: Cc1cccc(CNc2ccccc2C(N)=O)c1
 : 7%	-8%[1.06 µM]
92: CC(C)(C)c1ccc(C(=O)NCC(c2cccs2)S(=O)(=O)c2cccs2)cc1 (stereo not given)
 : -18%	5%
93: Cc1nn(C)c(C)c1CCNC(=O)Nc1cccc(Cl)c1C
 : 8%	19%
94: CC(C)CNC(=O)COC(=O)c1cc(Cl)ccc1Cl
 : -1%	-10%
95: Cc1ccc(-c2nn(-c3cc(N4CCOCC4)ccc3[N+](=O)[O-])c(=O)c3ccccc23)cc1
 : -3%	45%[activator]
96: Cc1ccc(NC(=O)CSc2nc(C)c(Cc3ccccc3)c(=O)[nH]2)cc1
 : 38%[activator]	4%
97: Cc1nc(SCc2nc(-c3ccccc3)oc2C)[nH]c(=O)c1C
 : 27%	21%
98: O=C(Nc1ccc2[nH]cc(C(C(=O)O)N3CCCC3)c2c1)c1ccccc1 (stereo not given)
 : 3%	-6%
99: CCOC(=O)c1ccc(NC(=O)CSc2nnc(-c3cccc(Cl)c3)n2C)cc1
 : 31%[activator]	1%
100: COc1ccc(-c2cc(=O)oc3cc(C)cc(OCC(=O)OC(C)C)c23)cc1
 : 6%	14%
101: Cc1ccc(N(CC(=O)Nc2ccc(Br)c(C)c2)S(=O)(=O)c2cccs2)cc1
 : -12%	1%
102: COc1ccc(N2CCN(C(=O)c3ccc4c(Cl)c5c(nc4c3)CCCC5)CC2)cc1
 : -10%	2%
103: COc1ccc(S(=O)(=O)NCC(c2ccco2)S(=O)(=O)c2ccc(C)cc2)cc1F (stereo not given)
 : -19%	258%[activator]
104: O=C(CN1CCOCC1)N1CCCN(S(=O)(=O)c2ccccc2)C1c1ccccc1 (stereo not given)
 : -4%	0%
105: CCCNc1c(NC(=O)NCC(C)C)c(=O)oc2ccccc12
 : 2%	-7%

Next section
Under each structure – 2A firefly	StopGo RLuc
106: Cc1nn(-c2ccc3nncn3n2)c2c1C(c1ccc(O)c(Cl)c1)CC(=O)N2 (stereo not given)
 : 0%	-1%
107: CCc1ccc(Sc2cc(C(=O)NCCCN3CCC(C)CC3)c3ccccc3n2)cc1
 : ?	?
108: CC1CCCN(CCCNC(=O)c2ccc3c(c2)N(Cc2ccccc2F)C(=O)c2ccccc2S3(=O)=O)C1 (stereo not given)
 : -16%	75%[activator]
109: Cc1ccccc1OCC(=O)Nc1cc2c(cc1S(=O)(=O)c1ccc(F)cc1)n(C)c(=O)n2C
 : -9%	-3%

Retrieved by structure from the entries so far, 4 records:
Under each structure – 2A firefly	StopGo RLuc
107: CCc1ccc(Sc2cc(C(=O)NCCCN3CCC(C)CC3)c3ccccc3n2)cc1
 : ?	?
106: Cc1nn(-c2ccc3nncn3n2)c2c1C(c1ccc(O)c(Cl)c1)CC(=O)N2 (stereo not given)
 : 0%	-1%
109: Cc1ccccc1OCC(=O)Nc1cc2c(cc1S(=O)(=O)c1ccc(F)cc1)n(C)c(=O)n2C
 : -9%	-3%
108: CC1CCCN(CCCNC(=O)c2ccc3c(c2)N(Cc2ccccc2F)C(=O)c2ccccc2S3(=O)=O)C1 (stereo not given)
 : -16%	75%[activator]

Screening data deposited in PubChem BioAssay by National Center for Advancing Translational Sciences (NCATS).

Some of the compounds tested; count on the stated rates, not on these rows.
